From PubChem
2A StopGo: lowers the luciferase signal of an FMDV 2A StopGo reporter. human cells with a luciferase reporter of 2A StopGo recoding; control for the full effect not named in the record. Potency, µM (titrated, usually from 57.9 µM), inactives show at the highest dose signal change, negative = less light. 410,000 tested, 1.2% active. AID 1159524; active = well fitted falling curve with a large enough effect; inconclusive = small, poorly fitted or top-dose-only effect; inactive = no such curve, though single readings can be large or run the other way; tested in HEK293T cells; further: on the % scale 0 is the no-effect control and ±100 the full control effect; nearly all actives have a fitted effect of over 45% in size; luciferase light after 4 h
RE007 growth inh: less growth of the S. pombe RE007 Vpr strain | S. pombe RE007 Vpr strain, BacTiter-Glo ATP luminescence, 24 h; control for the full effect not named in the record | Potency, µM (series often up to 92.2 µM), inactives show at the top dose activity change, negative = less growth | 360,000 tested, 0.21% active; active = well fitted falling curve with a large enough effect; inconclusive = small, poorly fitted or top-dose-only effect; inactive = no such curve, though single readings can be large or run the other way;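 further: on the % scale 0 is the no-effect control and ±100 the full control effect; nearly all actives have a fitted effect of over 50% in size; the assay follows cell death caused by Vpr and the record does not say whether a fall means rescue or toxicity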
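Fission yeast strain RE007, carrying one chromosomally integrated HIV-1 vpr copy, was seeded at OD 0.01 in PMG+AL medium with 23 nL pinned compound. After 24 h at 30 °C and 99% humidity, viability was read by BacTiter-Glo luminescence.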
Cruzain noTriton: blocks cruzain activity in detergent-free assay; P25779; purified cruzain, Z-FR-AMC fluorescence, no detergent; Potency, µM, for the others: max response, negative = inhibition, actives largely listed as inhibitors; 200,000 tested, 2.3% active; active means well fitted curve in the direction sought with a large enough effect; inconclusive means small, poorly fitted or top-dose-only effect, or another doubt; inactive means no such curve, though single readings can be large; an effect the other way counts as inactive or inconclusive;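 further: plate controls were enzyme without inhibitor for no effect and buffer without enzyme for full effect; nearly all actives have a fitted effect of over 40% in size; top concentration of the series not given in the record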
Target sequence (P25779 123-467 limits assumed): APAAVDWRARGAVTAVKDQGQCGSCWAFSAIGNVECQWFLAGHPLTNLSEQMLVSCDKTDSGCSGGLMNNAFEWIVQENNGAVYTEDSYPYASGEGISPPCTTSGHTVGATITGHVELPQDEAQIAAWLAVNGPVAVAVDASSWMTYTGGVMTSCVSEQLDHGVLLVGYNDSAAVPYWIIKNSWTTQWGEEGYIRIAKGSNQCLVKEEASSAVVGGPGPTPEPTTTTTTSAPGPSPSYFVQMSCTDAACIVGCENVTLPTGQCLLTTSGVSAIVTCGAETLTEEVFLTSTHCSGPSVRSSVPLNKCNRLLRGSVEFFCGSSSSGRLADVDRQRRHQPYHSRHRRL
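Purified cruzain at 1.5 nM, pre-incubated 15 min with compound at room temperature in 100 mM sodium acetate pH 5.5, 5 mM DTT, 0.00005% Triton X-100. Reaction started with 2 uM Z-FR-AMC; AMC fluorescence increase over 60 s gives rate.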
SARS PLP yeast: blocks SARS-CoV papain-like protease in a yeast assay | S. cerevisiae expressing SARS-CoV PLpro, growth rescue; control for the full effect not named in the record | 330,000 tested, 0.19% active | AID 485353 | Potency, µM (titrated, usually from 32.9 µM), for the others: at the top dose activity, positive = growth rescue; further: 0% is about no effect; nearly all actives have a fitted effect of over 55% in size; growth read by luminescence after 48 h
Cruzain Triton: blocks cruzain activity in presence of Triton detergent | Potency, µM, inactives show max response, negative = inhibition, actives largely listed as inhibitors | P25779 | purified cruzain, Z-FR-AMC fluorescence, 0.01% Triton | 200,000 tested, 0.43% active; active means well fitted curve in the direction sought with a large enough effect; inconclusive means small, poorly fitted or top-dose-only effect, or another doubt; inactive means no such curve, though single readings can be large; an effect the other way counts as inactive or inconclusive;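 further: plate controls were neutral wells for no effect and buffer without enzyme for full effect; nearly all actives have a fitted effect of over 40% in size; top concentration of the series not given in the record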
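Sodium acetate buffer (100 mM, pH 5.5) containing 5 mM DTT and 0.01% Triton X-100 hosted 1.5 nM cruzain and test compound for 15 min at room temperature. Cleavage of 2 uM Z-FR-AMC was then tracked by fluorescence.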
Marburg entry inh: inhibitors of Marburg virus binding or cell entry; Marburg virus pseudotyped entry inhibition, cell reporter; control for the full effect not named in the record; about a third of the inactives were read at about 46 µM; Potency, µM (series often up to 37.8 µM), inactives show top-dose activity change, negative = inhibition, most hits filed as inhibitors; 300,000 tested, 1.8% active; active = well fitted inhibition curve with a large enough effect; inconclusive = small, poorly fitted or top-dose-only effect, or effect the other way; inactive = flat fitted curve, though single readings scatter; tested in HEK293 cells; about a fifth of its hits are not listed in these tables; further: on the % scale 0 is the no-effect control and ±100 the full control effect; luciferase read-out
Lassa entry inh: inhibitors of Lassa virus binding or cell entry | 300,000 tested, 1.2% active | Potency, µM (highest dose often 37.9 µM), inactives show top-dose activity change, negative = inhibition, actives largely listed as inhibitors | Lassa virus pseudotype entry inhibition, cell reporter; control for the full effect not named in the record; active means well fitted inhibition curve with a large enough effect; inconclusive means small, poorly fitted or top-dose-only effect, or effect the other way; inactive means flat fitted curve, though single readings scatter; tested in HEK293 cells; further: on the % scale 0 is the no-effect control and ±100 the full control effect; nearly all actives have a fitted effect of over 50% in size; luciferase read-out
NS1 function inh: inhibitors of influenza NS1 protein function; S. cerevisiae slowed by influenza A NS1, growth recovery by OD600; Potency, µM (doses to about 46.1 µM), without a hit: top-dose activity, positive = more growth; 270,000 tested, 0.4% active; AID 2326; further: actives are rising curves; nearly all actives have a fitted effect of over 50% in size
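In this qHTS, NS1 from influenza A is expressed in budding yeast, where it slows growth. Cells are switched from glucose to 2% galactose medium (pH 6.0, -URA), treated with compound, and growth recovery is read at OD600.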
Active calls of the source: *; ? = inconclusive; · = no result given; & = joins results of further samples; [ ] = remark or other dose. Unless noted, the call rests on the fitted dose curve; in most records, active means well fitted rising curve with a large enough effect; inconclusive means small, poorly fitted or top-dose-only effect; inactive means no such curve, though single readings can be large or run the other way. Potency means the concentration at half of the fitted maximal effect.

1) COc1ccc(C(=O)Nc2nnc(C3=COCCO3)o2)cc1OC
2) Cc1csc2nc(COc3ccc(NC(=O)c4ccccc4F)cc3)cc(=O)n12
3) CNc1nnc(-c2cccc(N(C)C)c2)s1
4) O=C(Nc1ccccc1)N(C1=NCCCCS1)c1cccc2ccccc12
5) CN(C)/C=C(/C(=O)c1ccccc1)n1cncn1
6) COc1ccc(/C=C(\C#N)C(=O)OCC(=O)NCc2ccc(Cl)cc2)cc1
7) CCOc1ccc(OCC)c(NC(=O)C2CCN(c3cnccn3)CC2)c1
8) COc1cc(/C=C2\N=C3CCCCCN3C2=O)ccc1O
Screen / compound no.	1	2	3	4	5	6	7	8
2A StopGo	11%	-2%	39%[activator]	28%	7%	·	4%&-7%	·
RE007 growth inh	22%	·	-11%	-1%	5%	·	7%	7%
Cruzain noTriton	·	?	-5%	-2%	·	?	6%	1%
SARS PLP yeast	-6%	·	-10%	-2%	-1%	?	0%	0%
Cruzain Triton	·	-0.5%	4.0%	6.4%	·	-2.2%	-2.6%	-0.3%
Marburg entry inh	19%	-1%[46.1 µM]	5%	9%	11%[46.1 µM]	0%	-15%&-15%[46.1 µM]	17%&1%
Lassa entry inh	2%	4%[46.1 µM]	?	7%	10%	0%	2%[46.1 µM]	16%
NS1 function inh	5%	·	-11%	-9%	0%	5%	-6%	0%

9) CCC1(CC)C(=O)NC(=NCCc2c[nH]c3ccccc23)NC1=O
10) CCCC(=O)NC(=S)Nc1ccc(S(=O)(=O)N2CCc3ccccc32)cc1
11) Cc1ccccc1NC(NC(=O)OCCn1c([N+](=O)[O-])cnc1C)C(Cl)(Cl)Cl (stereo unspecified)
12) Cn1cc([N+](=O)[O-])c(C(=O)NCC(=O)O)n1
13) Nc1nc(-c2c[nH]c3ccccc23)cs1
14) Cc1oc(C(C)(C)C)cc1C(=O)NC(Cc1ccccc1)C(=O)O (stereo unspecified)
15) Nc1nc2ccc(Br)cc2o1
16) Cc1cccc(C)c1NC(=O)N1CCC(n2c(=O)[nH]c3ccccc32)CC1
Screen / compound no.	9	10	11	12	13	14	15	16
2A StopGo	10%	-15%	-29%	-6%	38%[activator]	9%	-9%	-16%
RE007 growth inh	0%	11%	3%	11%	-27%	7%	-13%	-2%
Cruzain noTriton	-3%	·	-6%	·	1%	·	·	-12%
SARS PLP yeast	0%	·	7%	2%	-12%	0%	·	3%
Cruzain Triton	2.7%	·	-8.4%	·	2.8%	·	·	3.0%
Marburg entry inh	?	?	?	·	3%	?	-5%	·
Lassa entry inh	16%	?	-12%	·	?	?	17%	·
NS1 function inh	-8%	·	12%	-7%	9%	1%	·	-3%

The final 3 entries of the part before lead into the next.
14) Cc1oc(C(C)(C)C)cc1C(=O)NC(Cc1ccccc1)C(=O)O (stereo unspecified)
15) Nc1nc2ccc(Br)cc2o1
16) Cc1cccc(C)c1NC(=O)N1CCC(n2c(=O)[nH]c3ccccc32)CC1
17) CCCOc1ccc(C(=O)NC2CCSc3ccccc32)cc1 (stereo unspecified)
18) Cc1ccccc1NC(=O)C1CC(=O)OC12CCOC(C)(C)C2 (stereo unspecified)
19) CC(C)(C)c1ccc(NC(=O)COC(=O)c2ccc(NS(=O)(=O)c3ccc(F)c(F)c3)cc2)cc1
20) Cc1ccc(S(=O)(=O)N2c3ccccc3OCC2C(C)(C)C)cc1 (stereo unspecified)
21) O=C(CCCCCNC(=O)N1CCn2c1nc1ccccc12)N[C@H](Cc1ccccc1)C(=O)O
22) COc1cc(OC)c(OC)cc1/C=N/NC(=O)CCc1c(C)n[nH]c1C
23) COc1cccc(/C=N/n2cnnc2)c1OCc1ccccc1
24) Clc1ccc(CSc2nnc(/C=C/c3ccccc3)o2)c(Cl)c1
Screen / compound no.	14	15	16	17	18	19	20	21	22	23	24
2A StopGo	9%	-9%	-16%	3%	-12%	?	?	-27%	4%	-22%	-17%
RE007 growth inh	7%	-13%	-2%	-11%	-10%	·	-18%	-2%	2%	0%	-16%
Cruzain noTriton	·	·	-12%	·	·	-14%	-26%	·	·	0%	-11%
SARS PLP yeast	0%	·	3%	-1%	1%	1%	-61%	3%	0%	-8%	0%
Cruzain Triton	·	·	3.0%	·	·	3.1%	-6.8%	·	·	7.0%	-7.9%
Marburg entry inh	?	-5%	·	-16%[46.1 µM]	14%[46.1 µM]	?	-23%	·	·	5%	?
Lassa entry inh	?	17%	·	?	1%	13µM*	9%	·	·	-2%	-5%
NS1 function inh	1%	·	-3%	-2%	1%	?	-38%	-6%	2%	-17%	-3%

Looked up above.
`O=C(CCCCCNC(=O)N1CCn2c1nc1ccccc12)N[C@H](Cc1ccccc1)C(=O)O` – SARS PLP yeast: 3%
`Clc1ccc(CSc2nnc(/C=C/c3ccccc3)o2)c(Cl)c1` – RE007 growth inh: -16%
`CCC1(CC)C(=O)NC(=NCCc2c[nH]c3ccccc23)NC1=O` – NS1 function inh: -8%

Whole records, looked up by structure. Values in the order: 2A StopGo, RE007 growth inh, Cruzain noTriton, SARS PLP yeast, Cruzain Triton, Marburg entry inh, Lassa entry inh, NS1 function inh
Clc1ccc(CSc2nnc(/C=C/c3ccccc3)o2)c(Cl)c1 across the screens: -17%, -16%, -11%, 0%, -7.9%, ?, -5%, -3%
O=C(CCCCCNC(=O)N1CCn2c1nc1ccccc12)N[C@H](Cc1ccccc1)C(=O)O across the screens: -27%, -2%, ·, 3%, ·, ·, ·, -6%
COc1cccc(/C=N/n2cnnc2)c1OCc1ccccc1 across the screens: -22%, 0%, 0%, -8%, 7.0%, 5%, -2%, -17%

Remaining list, next part.
25) C=CCN(c1ccc(OC)cc1)S(=O)(=O)c1ccc(Cl)c(C(=O)OCC(=O)NC2CC2)c1
26) CCOC(=O)N1CCN(CC(=O)Nc2nc3ccccc3s2)CC1
27) Cc1ccc2nc(-c3ccc(Cl)c(NC(=O)c4ccc(Br)o4)c3)oc2c1
28) CC1CN(C(=O)c2cccc(S(=O)(=O)N3CCN(c4ccccc4)CC3)c2)CC(C)O1 (stereo unspecified)
29) O=C(O)C1=C(C(=O)Nc2cc(C(F)(F)F)ccc2Cl)CCCC1
30) O=c1n(Cc2ccc(F)cc2)c2ccccc2c2nc(-c3ccccc3)nn12
Screen / compound no.	25	26	27	28	29	30
2A StopGo	-3%	-30%	66%[activator]	?	20%	5%
RE007 growth inh	?	-6%	·	-12%	-13%	·
Cruzain noTriton	·	·	-2%	·	·	-6%
SARS PLP yeast	2%	3%	·	-8%	0%	·
Cruzain Triton	·	·	0.0%	·	·	-0.3%
Marburg entry inh	21%[46.1 µM]	3%	·	-18%	1%	0%[46.1 µM]
Lassa entry inh	21%	?	7%[46.1 µM]	0%	-3%	?
NS1 function inh	·	-11%	·	·	-1%	·
